# High-throughput results (PubChem)
# INS promoter inh: TRM-6 insulin promoter activity inhibition; TRM-6 cells (human fetal islet line), insulin promoter-eGFP reporter, imaging; reporter expression induced with tamoxifen; inhibition, % at 2 µM; 130,000 compounds, 0.9% hits;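 active = inhibition above the mean plus 3 SD, with well images judged a real hit on visual review, cut at about 60% in these data, passing the limit was not always enough; inconclusive = inhibition over the cutoff but images rejected on review; inactive = inhibition not above the cutoff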
# GALR2 ag: activates the human galanin receptor 2; GALR2-expressing cells, agonist activation read-out; O43603; activation, %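 (tested at 5 µM)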; 140,000 compounds, 0.48% hits;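 active = above mean plus 3 SD of all compounds, about 5% in these data, not always enough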;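 note: 0% = vehicle buffer wells and 100% = reference agonist at full effect; tested in CHO reporter cells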
# RGS16-Gao: modulates binding between human RGS16 and Galphao; binding response (% of control), % at 10 µM; 220,000 compounds, 0.38% hits; bead-based flow cytometry RGS16-Galphao binding, fluorescence; actives lie on both sides; O15492+P09471;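 active = below 25% or above 175%, edge rows of some plates excepted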;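 note: Galphao activated by GDP with aluminum fluoride before binding; 100% = wells without compound and 0% = beads without RGS; some results beyond the cut were filed as inactive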
# HSV augment: increases HSV replication in cells. maximum fold increase. AID 1956. HSV replication augmentation in cells, fold increase. 220,000 compounds, 0.005% hits;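 active = peak rise of 1.5-fold or more in the series; inconclusive = self-fluorescent or not available for retest; tested in PC3 cells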;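 note: first round at 10 µM; read as green reporter fluorescence; hits show the peak of a series up to 25 µM; 1 = signal of infected wells without compound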
# PKD1 inh: inhibitors of human PKD1 kinase | PKD1 kinase fluorescence polarization assay | inhibition, %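 (about 10 µM by stock and volumes)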 | 200,000 compounds, 0.056% hits | AID 797;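 active = inhibition of 50% or more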;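 note: controls were vehicle for no effect and a reference inhibitor for full effect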
# Target sequence (Q15139 whole entry, looked up): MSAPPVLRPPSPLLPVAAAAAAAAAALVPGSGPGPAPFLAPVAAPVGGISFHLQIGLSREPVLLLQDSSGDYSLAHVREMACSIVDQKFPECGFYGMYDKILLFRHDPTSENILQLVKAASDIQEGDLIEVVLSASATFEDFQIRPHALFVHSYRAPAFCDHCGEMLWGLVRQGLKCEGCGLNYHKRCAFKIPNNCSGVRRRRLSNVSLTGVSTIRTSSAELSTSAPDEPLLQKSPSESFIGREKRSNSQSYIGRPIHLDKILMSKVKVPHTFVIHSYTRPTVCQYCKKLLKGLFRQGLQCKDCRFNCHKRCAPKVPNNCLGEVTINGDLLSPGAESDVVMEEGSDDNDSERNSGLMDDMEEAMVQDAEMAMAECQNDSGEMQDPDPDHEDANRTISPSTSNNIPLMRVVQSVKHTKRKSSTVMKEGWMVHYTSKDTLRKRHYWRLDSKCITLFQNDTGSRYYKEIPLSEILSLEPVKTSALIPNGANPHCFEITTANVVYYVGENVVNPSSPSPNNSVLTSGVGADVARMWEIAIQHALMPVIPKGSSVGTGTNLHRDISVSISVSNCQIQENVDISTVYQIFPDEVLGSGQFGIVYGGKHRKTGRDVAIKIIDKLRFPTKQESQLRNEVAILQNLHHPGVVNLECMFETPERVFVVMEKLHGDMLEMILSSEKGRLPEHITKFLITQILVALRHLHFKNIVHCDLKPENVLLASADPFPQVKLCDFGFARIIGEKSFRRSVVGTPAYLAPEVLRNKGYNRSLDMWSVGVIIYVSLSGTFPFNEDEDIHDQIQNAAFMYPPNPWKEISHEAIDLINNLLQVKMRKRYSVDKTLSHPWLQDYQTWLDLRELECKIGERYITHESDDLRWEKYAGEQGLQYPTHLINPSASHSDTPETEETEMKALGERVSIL
# INS promoter inh cell count: second read-out of INS promoter inh, no call of its own (marks repeat the call); normalized cell count, %; measured here: cell count, toxicity; reference of the scale not given here;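 cells exposed to compound for 48 h; stained nuclei by imaging scaled within each plate; lower means fewer cells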
# HSV augment primary fold: recorded beside HSV augment, whose call it bears; fold increase; compound at 10 µM; measured here: primary screen fold increase 10 uM; tested in PC3 cells;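 GFP signal in the first replicate; 1 = infected wells without compound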
# * marks the source's active call; other numbers are inactive results; i = inactive; ? = inconclusive; nt = not tested or not shown. This is a subset; rates above refer to the full screens.
mol	INS promoter inh cell count	RGS16-Gao	INS promoter inh	GALR2 ag	PKD1 inh	HSV augment	HSV augment primary fold
O=C(Cn1c(=S)[nH]c2ccccc2c1=O)N1CCC2(CC1)OCCO2	124	101	0	0.3	-5	i	0.84
CCNC(=S)N(C)CCc1cc2c(c(OC)c1C=C1C(=O)N(C)C(=O)N(C)C1=O)OCO2	nt	93	nt	nt	nt	i	1
CCOP(=O)(OCC)C(NC(=O)c1cccc([N+](=O)[O-])c1)C(Cl)(Cl)Cl (centres undefined)	nt	94	nt	nt	nt	i	0.93
CCP(=S)(CC)c1ccc(N(C)C)cc1	74	104	-396	nt	-2	i	1.1
CCCCn1c(O)c(/C(C)=N/NC(=O)Nc2ccccc2)c(=O)[nH]c1=O	nt	107	nt	nt	nt	i	0.99
CN1C[C@@H]2C[C@@H](c3cccn3-c3ccccn3)N3CCC[C@@]23C1=O	nt	99	nt	nt	8	i	0.92
COc1ccccc1CN1CCCCC1c1cccnc1 (centres undefined)	99	134	-152	-3.3	-10	i	0.69
CC1(C)CC2(CCO1)NCCN1C(=O)CSC12 (centres undefined)	136	100	-31	-1.5	-6	i	0.95
O=C(O)CC1OCC=C2CN3CCC45c6ccccc6NC4C1C2CC35 (centres undefined)	nt	98	nt	nt	nt	i	0.92
COc1ccc2c(c1)NP(=S)(Oc1ccccc1)N2 (centres undefined)	nt	105	nt	nt	nt	i	0.98
CCOCCN1CCC(OC(C)=O)C(C)C1 (centres undefined)	nt	100	nt	-0.6	2	i	0.98
CSCCC(N=Cc1c(O)n(-c2ccc(Cl)cc2)c(=O)[nH]c1=O)C(=O)OC(C)(C)C (centres undefined)	170	96	14	-0.3	1	i	0.85
Cc1ccc(/C=C2\C(=O)NC(=S)N(c3ccccc3F)C2=O)s1	nt	94	nt	-2.2	2	i	0.97
COc1ccc(/C=C2\C(=O)NC(=O)N(Cc3ccccc3)C2=O)c(OC)c1OC	nt	91	nt	nt	-3	i	1.1
CCOCCc1c(O)[nH]c(=S)[nH]c1=O	137	100	0	nt	-2	i	1.1
COc1ccc(/C=C2\C(=O)NC(=O)N(CCC3=CCCCC3)C2=O)c(OC)c1	nt	92	nt	-1.9	-1	i	0.92
CC(C)Sc1nnc(OC(=O)N(C)C)n1-c1ccccc1	nt	99	nt	nt	nt	i	1.1
CC(C)CCn1c(=O)c(C(=O)Nc2ccccc2S(N)(=O)=O)c(O)c2ccccc21	150	104	-7	-2.1	-6	i	0.98
S=C1Nc2ccccc2Sc2ccccc21	128	96	-44	nt	2	i	0.76
Cc1ccc(C)c(C2(O)CC(C)N(C)CC2C)c1 (centres undefined)	nt	100	nt	-2.9	-5	i	1.1
COc1ccccc1-n1c(O)c(C=NCc2ccc3c(c2)OCO3)c(=O)[nH]c1=O	53	102	16	-1.1	0	i	0.9
CCCCS(=O)(=O)N1CCN(C(=N)N[N+](=O)[O-])CC1	100	103	36	nt	-4	i	1.1
Cc1cccc(CSc2nc3c(cc2C#N)CN(C)CC3)c1	96	96	-9	-1.0	-15	i	1.1
Cc1nn(Cc2ccc(Cl)cc2Cl)c(Cl)c1C(=O)O	nt	101	nt	nt	-1	i	0.92
CCCCn1c(N)c(N(CCOC)C(=O)CN2CC=C(c3ccccc3)CC2)c(=O)[nH]c1=O	nt	106	nt	nt	-2	i	0.98
O=C(c1ccco1)c1cn(Cc2ccccc2)c2ccccc12	147	102	-6	-1.6	1	i	0.81
CC(C)CCNC(=O)c1c(N)n(CC2CCCO2)c2nc3ccccc3nc12 (centres undefined)	61	99	-31	32*	2	i	1.1
O=c1[nH]c(=O)n(Cc2ccccc2)c(O)c1C=NCCCO	111	78	31	0.8	-10	nt	nt
CN1CCN(CC(=O)Nc2ccc(Cl)cc2C(=O)c2ccccc2)CC1	104	99	-10	-0.2	-7	i	0.88
Cc1nc2cc(C(F)(F)F)ccc2n1C1CCN(Cc2nnnn2Cc2cccs2)CC1	86	100	0	0.2	2	i	0.71
CCc1ccc(OCCCN=C(C)c2c(O)n(C)c(=O)n(C)c2=O)cc1	61	100	30	-0.3	-9	i	0.93
CCOc1cccc(C2NCc3ccccc3-n3cccc32)c1O (centres undefined)	nt	96	nt	0.6	0	i	0.92
CC(=O)OC1N=C(c2ccccc2Cl)c2cc(Br)ccc2NC1=O (centres undefined)	nt	101	nt	nt	nt	i	0.65
Cc1nc2ccccc2c(=O)n1-c1ccccc1C(F)(F)F	nt	97	nt	-1.7	-1	i	0.92
O=c1[nH]c(=S)n(CCC2=CCCCC2)c(O)c1/C=N/N1CCOCC1	nt	100	nt	nt	nt	i	1.1
Cc1cc(Cl)ccc1C(=O)C1CCCN(Cc2ccon2)C1 (centres undefined)	nt	97	nt	nt	0	i	0.95
C/C(=N\Nc1ccccc1)c1c(O)n(-c2ccccc2)c(=O)[nH]c1=O	nt	109	nt	nt	nt	i	1
O=C(Nc1ccc(F)cc1F)c1cccn(Cc2ccccc2)c1=O	nt	103	nt	nt	7	i	0.95
Clc1ccc(COC(Cn2ccnc2)c2ccc(Cl)cc2Cl)cc1 (centres undefined)	127	99	-45	0.3	-5	i	0.9
O=C(O)Cn1cc(/C=C2\C(=O)NC(=O)N(Cc3ccco3)C2=O)c2ccccc21	nt	91	nt	nt	-2	i	0.99
CC(=O)c1c(C)n(Cc2ccccc2Cl)c2ccc(O)cc12	nt	108	nt	nt	-3	i	1
Cn1c(O)c(N=Nc2cccc(S(=O)(=O)N3CCOCC3)c2)c(=O)n(C)c1=O	143	97	-6	nt	-5	i	0.9
Cc1cc(N2CCOCC2)ccc1/C=C1\C(=O)NC(=O)N(c2ccccc2)C1=O	106	104	19	nt	-2	i	1.2
O=C1NC(=O)N(c2ccccc2)C(=O)/C1=C/c1ccoc1	nt	91	nt	nt	-3	?	nt
COc1c(O)ccc2c1-c1c3c(cc4c1C(C2)N(C)CC4)OCO3 (centres undefined)	137	104	19	-1.7	11	i	0.81
O=C(COc1ccccc1)N1CCN(C2CC3CCC2C3)CC1 (centres undefined)	46	96	6	-0.2	-5	i	1
Cc1ccc(-n2c(O)c(C=Nc3ccccc3N)c(=O)[nH]c2=O)cc1C	113	84	18	-1.2	-5	i	0.9
O=C1NC(=O)C2=Cc3ccc(O)cc3OC2(O)N1 (centres undefined)	77	98	50	nt	-1	?	nt
COc1ccc(-n2c(=O)[nH]c3ccccc3c2=O)cc1	66	103	-38	-3.4	6	i	0.95
Cc1ccccc1CN1CCN(C(=O)Cc2ccccc2)CC1	nt	123	nt	nt	-5	i	0.92
COc1ccc(C(=O)C2CN(C)CC2c2ccc(Cl)cc2)cc1 (centres undefined)	nt	104	nt	nt	1	i	0.97
COc1ccc(-n2c(O)c(/C=C/C=Nc3ccccc3)c(=O)[nH]c2=O)cc1	100	28	-39	0.4	-26	?	nt
O=C1NC(=O)N(c2ccc(Br)cc2)C(=O)/C1=C/c1ccsc1	103	90	0	nt	-3	i	1.1
Cc1nn(C2CCOC(C)(C)C2)c2c1C(c1ccc3c(c1)OCO3)SCC(=O)N2 (centres undefined)	96	101	-14	-1.2	0	i	0.97
O=C(CCc1nc(-c2ccccc2F)no1)N1CCC2(CC1)OCCO2	80	102	-109	-1.8	0	i	0.89
c1ccc(C2CC3CC4(CCCC4)N2O3)cc1 (centres undefined)	82	104	-136	-1.6	-1	i	0.88
CN(C)c1ccc(CN2CC=C(c3ccc(F)cc3)CC2)cc1	nt	108	nt	-1.4	-3	i	0.83
CCN(CC)CCCC(C)N=C(c1ccccc1)c1c(O)n(C)c(=O)n(C)c1=O (centres undefined)	72	43	-127	-1.8	-13	i	0.89
O=P1(Oc2ccccc2)OCCCS1 (centres undefined)	nt	102	nt	nt	nt	i	1.1
COc1ccc(C(=O)C2CCCN(C3CSCCSC3)C2)c(OC)c1 (centres undefined)	nt	103	nt	nt	-7	i	1

# Later entries
mol	INS promoter inh cell count	RGS16-Gao	INS promoter inh	GALR2 ag	PKD1 inh	HSV augment	HSV augment primary fold
COc1ccc(C(=O)c2nc3ccccc3n2C(C)C)cc1	44	102	-36	nt	-10	i	0.65
Cc1ccnc(-n2c(-c3ccccc3)nc3ccccc3c2=O)c1	110	98	-13	-0.8	9	i	1
CCCCC1(CN2CCCC2=O)C(=O)NC(=O)NC1=O	92	101	45	-1.1	-7	i	0.84
CCOC(=O)CSCCOc1ccc(C=C2C(=O)NC(=O)NC2=O)cc1OC	90	105	-7	nt	-9	i	0.94
CC(=NCCN1CCCCC1)c1c(O)n(-c2ccccc2)c(=O)[nH]c1=O	nt	108	nt	nt	nt	i	0.99
Cc1cc(OCC(=O)OC(C)C)c2c3c(c(=O)oc2c1)CCCC3	nt	99	nt	0.1	-10	i	0.88
COc1cccc(CCNCc2ccc(SC)cc2)c1	nt	168	nt	0.2	-1	i	1
CN(C)CC1CSCCC1(O)c1ccc(C(F)(F)F)cc1 (centres undefined)	129	95	24	1.5	-5	i	0.86
Cc1cccc(N2C(=O)NC(=O)/C(=C/c3ccc(N4CCOCC4)cc3)C2=O)c1	nt	97	nt	nt	2	i	0.96
O=C(c1ccccc1F)c1cn(CC(=O)N2CCCCC2)c2ccccc12	28	101	3	-1.8	-7	i	1.1
CCCC[N+]12CCC(CC1)C(=C(c1ccccc1)c1ccccc1)C2	nt	111	nt	0.3	-8	i	1.1
CCOP(=S)(OCC)Oc1cc(C)oc(=O)c1Cl	nt	89	nt	nt	nt	i	0.97
CCCCn1c(O)c(C(CC)=NCc2cc(OC)cc(OC)c2)c(=O)[nH]c1=O	118	100	65	-3.0	2	i	0.55
CCN(CC)C(=O)c1ccc(NC(=O)COc2ccc([N+](=O)[O-])cc2Cl)cc1	93	113	-8	-1.7	-12	i	0.99
OC(CCNCCc1c[nH]c2ccccc12)C(F)(F)Cl (centres undefined)	122	110	-11	nt	0	i	0.96
CC(=NCCCO)c1c(O)[nH]c(=O)[nH]c1=O	nt	104	nt	nt	nt	i	0.96
O=C(COc1ccc(Br)cc1)N1CCN(C2CCCC2)CC1	85	98	0	-0.6	-10	i	0.91
Cc1cccc(N2C(=O)NC(=O)/C(=C\c3ccc4c(c3)CCCN4Cc3ccccc3)C2=O)c1	88	103	-23	0.4	18	i	1.2
C=CCOC(=O)C1=C(C)OC(N)=C(C(=O)OCC)C12C(=O)N(CC(N)=O)c1ccccc12 (centres undefined)	nt	109	nt	-1.0	-5	i	0.83
O=C(Nc1c(F)cc(F)cc1F)c1cccn(Cc2ccccc2)c1=O	nt	98	nt	nt	-5	i	0.67

# Two records picked at random from the list so far, as already listed:
mol	INS promoter inh cell count	RGS16-Gao	INS promoter inh	GALR2 ag	PKD1 inh	HSV augment	HSV augment primary fold
O=C1NC(=O)N(c2ccc(Br)cc2)C(=O)/C1=C/c1ccsc1	103	90	0	nt	-3	i	1.1
Cc1nn(Cc2ccc(Cl)cc2Cl)c(Cl)c1C(=O)O	nt	101	nt	nt	-1	i	0.92

# Other entries:
mol	INS promoter inh cell count	RGS16-Gao	INS promoter inh	GALR2 ag	PKD1 inh	HSV augment	HSV augment primary fold
CC(=O)Nc1ccc(OC(=O)N(C)c2ccccc2)cc1	107	100	25	-2.7	-3	i	0.97
CCCCn1c(O)c(C(C)=NCCN2CCCCC2)c(=O)[nH]c1=O	128	99	0	-0.6	-4	i	0.9
O=C1NC(=O)C(=Cc2ccc(-c3ccccc3[N+](=O)[O-])o2)C(=O)N1	nt	82	nt	nt	nt	i	1.1
O=C(CSC1c2ccccc2-c2ccccc21)N/N=C/c1ccc(C(=O)O)cc1	96	100	43	nt	2	i	1.1
CC(=O)c1cc(C(C)=O)c(C)[n+](C)c1C	nt	104	nt	nt	nt	i	1.1
Cc1ccc(Cn2c(C)c3cnn(CC(=O)N4CCC5(CC4)OCCO5)c(=O)c3c2C)cc1	nt	81	nt	-2.0	-9	nt	nt
O=C(c1ccc(N2CCCCCC2)c([N+](=O)[O-])c1)N1CCC2(CC1)OCCO2	nt	97	nt	nt	1	i	0.96
CN1CCN(C(=O)COc2ccc(N(C)S(=O)(=O)c3ccc(F)cc3)cc2)CC1	nt	109	nt	nt	2	i	0.99
Cc1ccc2c(c1)C1CN(C)CCC1N2C(=O)c1ccc(Br)o1 (centres undefined)	45	102	3	-0.3	3	i	0.88
Nc1nonc1C(=O)N/N=C/c1ccc([N+](=O)[O-])o1	141	105	-64	nt	3	i	0.86
CC(NCc1ccc(Cl)cc1Cl)C(O)c1ccccc1 (centres undefined)	nt	99	nt	-1.6	3	i	1.1
